Lassa entry inh: qHTS for Inhibitors of binding or entry into cells for Lassa Virus; Lassa virus pseudotype entry inhibition, cell reporter; control for the full effect not named in the record; Potency, µM (top dose mostly 37.9 µM), without a hit: top-dose activity change, negative = inhibition, usual class: inhibitors; 1.2% of 300,000 active; AID 540256, 2011; active means well fitted inhibition curve with a large enough effect; inconclusive means small, poorly fitted or top-dose-only effect, or effect the other way; inactive means flat fitted curve, though single readings scatter; tested in HEK293 cells; further: on the % scale 0 is the no-effect control and ±100 the full control effect; nearly all actives have a fitted effect of over 50% in size; luciferase read-out
NS1 inh: qHTS Assay for Inhibitors of Influenza NS1 Protein Function; S. cerevisiae slowed by influenza A NS1, growth recovery by OD600; Potency, µM (highest dose often 46.1 µM), inactives show at the highest dose activity, positive = more growth; 0.4% of 270,000 active; AID 2326, 2010; active means well fitted rising curve with a large enough effect; inconclusive means small, poorly fitted or top-dose-only effect; inactive means no such curve, though single readings can be large or run the other way; further: nearly all actives have a fitted effect of over 50% in size
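A cell-based growth assay was used: compounds that relieve NS1-induced slow growth of budding yeast raise OD600. Assay medium was yeast nitrogen base with ammonium sulphate and -URA supplement, pH 6.0, with 2% galactose.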
Cruzain noTriton: qHTS Assay for Promiscuous and Specific Inhibitors of Cruzain (without detergent); purified cruzain, Z-FR-AMC fluorescence, no detergent; Potency, µM, for inactives: max response, negative = inhibition, most hits filed as inhibitors; 2.3% of 200,000 active; AID 1476, 2009;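 further: plate controls were enzyme without inhibitor for no effect and buffer without enzyme for full effect; nearly all actives have a fitted effect of over 40% in size; top concentration of the series not given in the record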
Target sequence (P25779 123-467 limits assumed): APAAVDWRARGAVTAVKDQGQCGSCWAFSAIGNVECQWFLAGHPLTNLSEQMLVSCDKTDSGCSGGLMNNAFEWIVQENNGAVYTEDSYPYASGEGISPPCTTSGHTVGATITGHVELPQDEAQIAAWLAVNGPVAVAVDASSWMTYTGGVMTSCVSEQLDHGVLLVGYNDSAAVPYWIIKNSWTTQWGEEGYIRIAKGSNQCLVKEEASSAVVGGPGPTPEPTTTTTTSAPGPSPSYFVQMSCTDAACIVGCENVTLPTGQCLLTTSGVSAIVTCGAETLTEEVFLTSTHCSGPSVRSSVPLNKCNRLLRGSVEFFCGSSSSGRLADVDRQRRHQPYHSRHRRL
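Detergent-free condition (0.00005% Triton X-100) in acetate buffer pH 5.5 with DTT. 1.5 nM enzyme and compound were pre-mixed 15 min, then 2 uM Z-FR-AMC substrate added; reaction progress from fluorescence change between first and third reads (60 s).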
SARS PLP yeast: qHTS of Yeast-based Assay for SARS-CoV PLP; S. cerevisiae expressing SARS-CoV PLpro, growth rescue; control for the full effect not named in the record; Potency, µM (top dose mostly 32.9 µM), for the others: at the top dose activity, positive = growth rescue; 0.19% of 330,000 active; AID 485353, 2010; active means well fitted rising curve with a large enough effect; inconclusive means small, poorly fitted or top-dose-only effect; inactive means no such curve, though single readings can be large or run the other way; further: 0% is about no effect; nearly all actives have a fitted effect of over 55% in size; growth read by luminescence after 48 h
Cruzain inh Det: qHTS Assay for Promiscuous and Specific Inhibitors of Cruzain (with detergent). Cruzipain (Trypanosoma cruzi), P25779. purified cruzain, Z-FR-AMC fluorescence, 0.01% Triton. Potency, µM, inactives show max response, negative = inhibition, usual class: inhibitors. 0.43% of 200,000 active. AID 1478, 2009;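 further: plate controls were neutral wells for no effect and buffer without enzyme for full effect; nearly all actives have a fitted effect of over 40% in size; top concentration of the series not given in the record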
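Detergent-containing arm of a paired screen for aggregation-based inhibition: 0.01% Triton X-100 present. Cruzain at 1.5 nM cleaved 2 uM Z-FR-AMC at pH 5.5 with 5 mM DTT; AMC fluorescence gain over 60 s measured activity.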
RE007 growth inh: qHTS Assay for Inhibitors of the HIV-1 protein Vpr. S. pombe RE007 Vpr strain, BacTiter-Glo ATP luminescence, 24 h; control for the full effect not named in the record. Potency, µM (titrated, usually from 92.2 µM), inactives show top-dose activity change, negative = less growth. 0.21% of 360,000 active; active = well fitted falling curve with a large enough effect; inconclusive = small, poorly fitted or top-dose-only effect; inactive = no such curve, though single readings can be large or run the other way;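 further: on the % scale 0 is the no-effect control and ±100 the full control effect; nearly all actives have a fitted effect of over 50% in size; the assay follows cell death caused by Vpr and the record does not say whether a fall means rescue or toxicity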
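Fission yeast strain RE007, carrying one chromosomally integrated HIV-1 vpr copy, was seeded at OD 0.01 in PMG+AL medium with 23 nL pinned compound. After 24 h at 30 °C and 99% humidity, viability was read by BacTiter-Glo luminescence.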
2A StopGo: High Throughput Screening for Foot and Mouth Disease Virus Antivirals; AID 1159524, 2015; 1.2% of 410,000 active; Potency, µM (titrated, usually from 57.9 µM), for inactives: at the highest dose signal change, negative = less light; human cells with a luciferase reporter of 2A StopGo recoding; control for the full effect not named in the record; active = well fitted falling curve with a large enough effect; inconclusive = small, poorly fitted or top-dose-only effect; inactive = no such curve, though single readings can be large or run the other way; tested in HEK293T cells; further: on the % scale 0 is the no-effect control and ±100 the full control effect; nearly all actives have a fitted effect of over 45% in size; luciferase light after 4 h
MARV entry inh: qHTS for inhibitors of binding or entry into cells for Marburg Virus | Marburg virus pseudotyped entry inhibition, cell reporter; control for the full effect not named in the record; about a third of the inactives were read at about 46 µM | Potency, µM (doses to about 37.8 µM), inactives show at the top dose activity change, negative = inhibition, most hits filed as inhibitors | 1.8% of 300,000 active; active = well fitted inhibition curve with a large enough effect; inconclusive = small, poorly fitted or top-dose-only effect, or effect the other way; inactive = flat fitted curve, though single readings scatter; tested in HEK293 cells; about a fifth of its hits are not listed in these tables; further: on the % scale 0 is the no-effect control and ±100 the full control effect; luciferase read-out
The depositor's hits bear a star; ? = inconclusive; . = no result given; & = joins results of further samples; [ ] = remark or other dose. Unless noted, the call rests on the fitted dose curve; in most records, active means well fitted curve in the direction sought with a large enough effect; inconclusive means small, poorly fitted or top-dose-only effect, or another doubt; inactive means no such curve, though single readings can be large; an effect the other way counts as inactive or inconclusive. Potency means the concentration at half of the fitted maximal effect.

SMILES	Lassa entry inh	NS1 inh	Cruzain noTriton	SARS PLP yeast	Cruzain inh Det	RE007 growth inh	2A StopGo	MARV entry inh
Cc1cc(Cl)ccc1NC(=O)CCS(=O)(=O)c1ccc2c(c1)CC(C)N2C(=O)C1CC1 (stereo not given)	-1%[46.1 µM]	.	22%	.	-5.3%	.	-25%	.
COc1ccc(S(=O)(=O)NC(C)C(=O)NCc2ccc3c(c2)OCO3)cc1OC (stereo not given)	19%	-2%	.	17%	.	-27%	2%	2%[46.1 µM]
COc1cc2c(cc1OC)-c1cc(Nc3ccccc3)nc(=O)n1CC2	-26%	-7%	.	0%	.	11%	-7%	-2%
CCOC(=O)c1cnc(-c2ccc(C(F)(F)F)cn2)[nH]c1=O	-24%	-1%	.	1%	.	4%	3%	-12%
NC(=O)CN1C(=O)C(O)(CC(=O)/C=C\C=C\c2ccccc2)c2ccccc21 (stereo not given)	-10%	-5%	-12%	10%	-11%	21%	0%	-39%
COc1ccc(-n2nc(C(=O)NCC(=O)N3CCCCCC3)c3ccccc3c2=O)cc1OC	-15%	4%	.	1%	.	-7%	15%	-3%[46.1 µM]
CCOc1cc(C(=O)OC(C)C(=O)Nc2ccc(S(N)(=O)=O)cc2)ccc1OCC(=O)N1CCOCC1 (stereo not given)	17%	.	.	-2%	.	5%	-12%	12%[46.1 µM]
COc1ccccc1N(CC(=O)NCC1CCCO1)C(=O)CNS(=O)(=O)c1ccc(Cl)cc1 (stereo not given)	.	-70%	.	6%	.	13%	23%	.
Cc1ccc(-c2noc(CCC(=O)Nc3ccc4c(c3)OCO4)n2)cc1	26%	-6%	-19%	5%	-2.2%	-7%	-20%	?
O=C(Nc1ccncc1)c1ccc(Cl)c(S(=O)(=O)N2CCc3ccccc32)c1	7.9µM*	.	.	1%	.	-8%	?	?
O=C(NC1CCCCC1)c1cccnc1Sc1ccccc1	-17%	4%	.	13%	.	-1%	7%	-12%[46.1 µM]
CN(C)c1ccc(/C=C/c2ccc3ccccc3[n+]2C)cc1	?	-36%	-27%	-89%	-16%	.	?	?
O=C(NNC(=O)c1ccc(SCC2CCCO2)c([N+](=O)[O-])c1)c1ccc(F)cc1 (stereo not given)	-8%	1%	-4%	-4%	6.5%	8%	-20%	15%
COc1ccc(Cn2nnc3c(=O)[nH]c(C4CCCN(C(=O)c5ccc(C)cc5)C4)nc32)cc1 (stereo not given)	4%[46.1 µM]	.	?	.	-4.4%	.	-12%	?
CCOc1cc(-c2ccc(N)c(OCC)c2)ccc1N	7%	?	25µM*	13%	-7.8%	-16%	-8%	-10%
COc1cc(OC)c(OC)cc1C#N	.	2%	.	-4%	.	-12%	-3%	.
Cc1ccccc1CC1(CO)CCCN(C(=O)c2ccc3ncccc3c2)C1 (stereo not given)	-29%	-7%	.	0%	.	-17%	2%	-18%[14.2 µM]
O=C(COC(=O)C1CC1)NCCNC(=O)COC(=O)C1CC1	-13%	.	.	0%	.	-2%	-12%	3%[46.1 µM]
O=C(N/N=C/c1cccs1)c1ccc(NC(=O)c2ccccc2Cl)cc1	5%	0%	-1%	-10%	-8.9%	16%	-13%	?
CCOC(=O)c1c(NC(=O)CSc2nc3ccc(C)cc3[nH]2)sc2c1CC(C)(C)NC2(C)C	10µM*	.	.	-7%	.	6%	-23%	?
O=C(CCc1nnc(CCCCc2ccccc2)o1)NC(c1cccnc1)C(F)(F)F (stereo not given)	.	-1%	.	0%	.	29%	-28%	.
COc1ccc(OC)c(C2c3c(oc4ccc(C)cc4c3=O)C(=O)N2CCCN(C)C)c1 (stereo not given)	10%[46.1 µM]	.	-7%	.	-2.1%	.	10%	.
O=C(CN1C(=O)c2ccccc2S1(=O)=O)Nc1ccc(S(=O)(=O)N2CCCCC2)cc1	15%	?	-17%	.	-6.4%	13%	13%	2%&9%
COc1ccc(C2=NS(=O)(=O)N(C)C(C(=O)Nc3ccc(C)cc3)=C2)cc1	.	1%	.	-9%	.	6%	-10%	.
Cc1cc(=O)n2nc(N3CCCC3C(=O)Nc3ccc(C(C)C)cc3)sc2n1 (stereo not given)	.	23%	.	2%	.	10%	0%	.
O=C1NC(=O)[C@]2(Cc3ccccc3N3CCN(c4ccccc4)CC32)C(=O)N1Cc1ccccc1 (stereo not given in full)	18%	-44%	?	6%	-22%	8%	44%[activator]	6%
COc1ccc(NC(=O)c2oc3ccccc3c2NC(=O)C2CC2)c(OC)c1	.	16%	.	1%	.	-5%	2%	.
Cc1cc(NC(=O)CSc2nccn2C)no1	6%[46.1 µM]	.	.	0%	.	16%	-18%	-6%[46.1 µM]
O=C(CSc1nc2c(cnn2-c2ccccc2)c(=O)[nH]1)c1ccc(Cl)cc1	8%	3%	0%	4%	-0.1%	10%	-8%	-8%
O=C(NCCN1CCNC1=O)C1CCC(=O)N(CCc2ccccc2)C1 (stereo not given)	2%	17%	.	-2%	.	-6%	-14%	14%
COc1ccc(OC)c(NC(=O)C2CCN(S(=O)(=O)c3ccc(C)cc3)CC2)c1	8%[46.1 µM]	.	-11%	.	-3.0%	.	-16%	15%[46.1 µM]
CC1CN(C(=O)Nc2ccc(C(=O)NCc3ccccc3F)cc2)c2ccccc2S1 (stereo not given)	-3%[46.1 µM]	.	-18%	.	3.1%	.	-12%	3%[46.1 µM]
CCCCCC(=O)N1CCN(S(=O)(=O)c2ccc3c(c2)OCCCO3)CC1	-6%	.	.	-14%	.	5%	0%	-5%
Cc1cc(N2CCN(C(=O)c3ccco3)CC2)n2nc(C)nc2n1	1%	-4%	5%	0%	1.2%	-10%	-15%	7%
Cc1cc(Cl)n2ncc(-c3ccccc3)c2n1	?	-5%	.	-1%	.	21%	-17%	?
O=C(CSc1nccn(-c2ccc3c(c2)OCCO3)c1=O)Nc1ccccc1	?	.	.	1%	.	8%	4%	-5%
COc1ccc(Cl)cc1Nc1nc2ccc(C(=O)c3ccccc3)cc2n2cnnc12	?	.	22%	.	-2.5%	.	0%	.
C=CCNC(=O)C1COc2ccccc2O1 (stereo not given)	9%	0%	.	0%	.	-10%	-12%	1%
COc1ccc(F)cc1NC(=O)C1CCN(c2nc(-c3ccc(OC)c(OC)c3)no2)CC1	-46%[46.1 µM]	.	-1%	.	-3.7%	.	19%	12%[46.1 µM]
O=C1Nc2ccccc2C(=O)N2C[C@@H](O)C[C@H]12	2%[46.1 µM]	1%	.	0%	.	1%	6%	13%[46.1 µM]
Cc1occc1C(=O)Nc1cnn(CCCC(=O)O)c1	18%[46.1 µM]	-6%	.	9%	.	-2%	8%	9%[46.1 µM]
CCCn1c(N)c(N(CCOC)C(=O)c2c(CC)noc2C)c(=O)[nH]c1=O	?	.	.	-1%	.	5%	-14%	9%
CCN(CC)S(=O)(=O)c1ccc2[nH]c(=O)cc(C(=O)NCC(c3ccco3)N3CCCC3)c2c1 (stereo not given)	?	.	.	0%	.	5%	9%	10%
O=C1CC(Cc2ccccc2)C(=O)N1CCc1ccc2c(c1)OCO2 (stereo not given)	-4%	-36%	-10%	-2%	-4.8%	-10%	?	0%
CC(NC(=O)c1c2c(nc3ccccc13)C(=O)N(C1CCCCC1)C2)c1ccccc1 (stereo not given)	?	.	26%	.	-4.4%	.	-20%	.
O=C(Cn1nnc(-c2cccs2)n1)OC1CCCCC1	0%	-16%	-14%	-7%	-7.9%	?	30%[activator]	?
Cc1cc(/C=C2/C(=O)NC(=O)N(Cc3ccco3)C2=O)c(C)n1-c1ccccc1	12%	28%	-10%	-5%	-11%	3%	17%	30%
CC(C)c1ccc(S(=O)(=O)N2CCN(C(=O)CN3C(=O)NC(C)(c4ccccc4)C3=O)CC2)cc1 (stereo not given)	-6%	.	.	8%	.	-20%	-18%	1%
C[C@H](CCC(=O)O)[C@H]1CC[C@H]2[C@@H]3CC[C@@H]4C[C@H](O)CC[C@]4(C)[C@H]3C[C@H](O)[C@]12C	.	.	?	.	-5.3%	-3%&12%&-4%	?	.
CCn1c(SCC(=O)O)nnc1-c1ccccc1OC	23%[46.1 µM]	-7%	.	-1%	.	-4%	-10%	-3%[46.1 µM]
COc1ccc(-c2nc(CSCC(=O)N3CCN(c4ccc(F)cc4)CC3)c(C)o2)cc1	-27%[46.1 µM]	.	?	.	-0.4%	.	13µM*	?
CC1(OC(=O)CCc2ccccc2)C(=O)C=C2C=C(c3ccc(C#N)cc3)N(c3ccccc3)C=C2C1=O (stereo not given)	.	2%	.	1%	.	8%	-8%	.
COc1ccc(OC)c(C2C(C(=O)Nc3ccc(C)cc3C)=C(C)Nc3c(C(=O)Nc4ccc(F)cc4)cnn32)c1 (stereo not given)	8%[46.1 µM]	.	?	.	-5.8%	.	-2%	.
COc1ccc(-n2ccnc(NCc3ccc(C)cc3)c2=O)cc1OC	0%[46.1 µM]	.	6%	.	-2.5%	.	-18%	.
Cc1nnc(NC(=O)c2oc3ccccc3c2C)s1	17%[46.1 µM]	-11%	.	-3%	.	-4%	13%	-15%[46.1 µM]
CC(C)Cn1c(=O)c2ccccc2n2c(CCC(=O)NC3CCN(Cc4ccccc4)CC3)nnc12	.	17%	.	6%	.	-21%	-10%	.
Cc1ccc(NCc2nnc(SCC(=O)NCCc3ccccc3)n2C)cc1	16%	1%	8%	1%	2.0%	-9%	13%	42%&0%
CCn1cc(C(=O)OCC(=O)Nc2cccc(S(=O)(=O)N3CCOCC3)c2)c(=O)c2ccc(C)nc21	-1%	0%	?	5%[6.58 µM]	0.3%	-3%	10%	13%

Assay outcomes: PubChem, National Center for Advancing Translational Sciences (NCATS)
